Ab BasE inh = blocks the Acinetobacter baumannii siderophore enzyme BasE | purified BasE, fluorescence polarization binding displacement | inhibition, % (no concentration beside the values) | 0.1% of 84,000 active;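 active = both replicates above 25% with normal brightness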;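 note: 0% = negative plate control signal and 100% = positive plate control signal; stock transfer was 100 nL into about 30 µL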
LANA-nucl inh = LANA-nucleosome interaction inhibition; FITC-LANA1-23 / chicken nucleosome fluorescence polarization; active compounds read low; z-score (test concentration not listed); 0.3% of 51,000 active; AID 720717;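 active = both repeat wells score below -2 in polarization z-score versus plate sample wells, excluding overly bright wells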;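 note: 100 nL library stock added to about 30 µL; numbers are from one replicate; some results filed as inactive read as strong as hits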
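Test system: purified chicken nucleosomes with FITC-labelled LANA N-terminal peptide (1-23); Input: 240 nM purified chicken nucleosomes (480 nM peptide binding sites), final; Medium: TEN-BT buffer, pH 7.5; Timing: 10–45 min, room temperature; Technique: fluorescence polarization, 480 nm excitation, 535 nm parallel and perpendicular emission; Replication: duplicates.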
* = called active by the depositor; x = no result given; & = joins results of further samples.

SMILES	Ab BasE inh	LANA-nucl inh
O=C(CSc1ncc(C(F)(F)F)cc1Cl)N(c1ccccc1)C1CCS(=O)(=O)C1 (configuration not stated)	-0.6	x
Nc1nc(-c2ccccc2)nn1C(=O)c1cccs1	4.2	0.609
S=c1nc2[nH]c3ccccc3c2n[nH]1	2.0	1.71
COCCn1c(Cc2ccccc2)nnc1SCC(=O)N(C)C	0.6	-0.026
Cc1nc(C)c(-c2n[nH]c(=S)n2-c2ccccc2C(F)(F)F)s1	-2.3	x
CCC(=O)NC(=S)Nc1cc(-c2nc3ncccc3o2)ccc1C	4.1	-0.377
CSc1ccc(/C=C2\SC(=O)N(C)C2=O)cc1	-0.6	-0.099
COC(=O)C1Cc2ccccc2CN1S(=O)(=O)c1ccc(C)cc1 (configuration not stated)	-3.8	x
CCOC(=O)C1=C(CN(C)Cc2ccccc2)NC(=O)NC1c1ccccc1 (configuration not stated)	0.8	0.742
Cc1ccc2c(c1)cc(CN(Cc1ccco1)S(=O)(=O)c1ccccc1)c1nnnn12	1.3	-0.413
CC1(C)Cc2nc3sc4c(NN)ncnc4c3cc2CO1	-1.1	x
COc1cccc(CN(C)C(=O)c2cccnc2SC)c1	1.0	x
NC(N)=NS(=O)(=O)c1ccc(NC(=O)OC2CCCC2)cc1	-0.2	x
COc1cc(OC)c(NC(=O)C2CCCN(c3ncnc4onc(C)c34)C2)cc1Cl (configuration not stated)	-2.1	x
CCOC(=O)c1cc(-c2ccccn2)nc2c1c(=O)n(CC(=O)OC)c(=O)n2Cc1ccccc1	-1.2	x
CC1CCN(Cc2ccc(NC(=O)COCc3cc(-c4ccco4)on3)cc2)CC1	-4.9	0.136
CC(=O)N(CN1C(=O)C2CC=CCC2C1=O)c1cccc(Cl)c1 (configuration not stated)	-3.1	1.84
O=c1c2[nH]c3ccccc3c2nc(SCCC2OCCO2)n1-c1ccccc1F	-0.4	-0.595
CCOC1(OCC)N=C(N)c2ccccc21	1.6	-0.555
Cc1cc(NCCO)cc(=O)n1Cc1ccco1	0.2	-0.284
CCCCn1c(N)c(N(CC)C(=O)/C=C/c2ccc(Cl)cc2)c(=O)[nH]c1=O	1.6	x
Brc1ccc(CSc2nc3ccccc3o2)cc1	-1.2	0.182
CCC(C)NC(=O)N1c2ccccc2Sc2ccccc21 (configuration not stated)	1.3	x
NC(=O)N/N=C/c1sc(N2CCCCC2)nc1-c1cccs1	0.1	x
Nc1cc(N)nc(SCC(=O)NCCN2C(=O)CSC2=O)n1	-1.8	x

6 records picked at random from the list so far, as already listed:
SMILES	Ab BasE inh	LANA-nucl inh
COc1cc(OC)c(NC(=O)C2CCCN(c3ncnc4onc(C)c34)C2)cc1Cl (configuration not stated)	-2.1	x
COC(=O)C1Cc2ccccc2CN1S(=O)(=O)c1ccc(C)cc1 (configuration not stated)	-3.8	x
CSc1ccc(/C=C2\SC(=O)N(C)C2=O)cc1	-0.6	-0.099
CCCCn1c(N)c(N(CC)C(=O)/C=C/c2ccc(Cl)cc2)c(=O)[nH]c1=O	1.6	x
Brc1ccc(CSc2nc3ccccc3o2)cc1	-1.2	0.182
CC1CCN(Cc2ccc(NC(=O)COCc3cc(-c4ccco4)on3)cc2)CC1	-4.9	0.136

Remaining list, next part
SMILES	Ab BasE inh	LANA-nucl inh
Cc1ccc(C)c2nc(SCC(=O)OC(C)C)c(C#N)cc12	-1.4	-0.157
CCn1c2c(c3cc(C4CCCCC4)ccc31)CCC/C2=N\O	-2.7	x
COc1cc(S(=O)(=O)N2CCCC2c2nc3ccccc3s2)ccc1NC(C)=O (configuration not stated)	-3.0	x
CCN(Cc1ccccc1)S(=O)(=O)c1ccc(-c2ccc(=O)[nH]n2)o1	1.6	x
C=CCN=C1SC(C)(C)C(=O)N1S(=O)(=O)c1ccc(C)cc1	0.5	x
Cc1cccc(N2C(=O)C3C4C=CC(C4)C3C2=O)c1 (configuration not stated)	2.6	-0.307
FC(F)(F)c1ccnc(NCCN=Cc2ccccc2)n1	0.0	0.373
O=C(O)CC1(CC(=O)Nc2cccc(CO)c2)CCCC1	-1.2	x
CCC(=NCc1ccc(C#N)cc1)c1ccccc1O	-3.1	x
O=C(NC1CCS(=O)(=O)C1)c1cccc(S(=O)(=O)N2CCCC2)c1 (configuration not stated)	3.4	-0.57
CCCCn1c(=O)[nH]c(=O)c2c1nc(-c1ccc(-c3ccc(S(=O)(=O)N(CC)CC)cc3)o1)n2CC(C)C	0.4	x
OC(OCc1ccc(C(O)(C(F)(F)F)C(F)(F)F)o1)(C(F)(F)F)C(F)(F)F	0.3	0.726
C=CCN1CN(Cc2ccco2)CNC1=S	0.5	-0.503
COc1ccc(C)cc1NC(=O)c1cc(C(=O)Nc2cc(C)ccc2OC)n(C)n1	-1.8	0.171
c1coc(-c2nc3sc4c(N5CCCCC5)ncnc4c3c3c2CCCC3)c1	2.1	-0.187
CCOC(=O)c1c(NC(=O)c2ccccc2)sc2c1CC(C(C)C)OC2 (configuration not stated)	1.7	x
Nc1cc(Br)cnc1N	15.1	x
Cc1cc(C(=O)COC(=O)c2ccco2)c(C)n1CC1CCCO1 (configuration not stated)	1.2	x
CCC(=O)/C(=C(/O)c1ccccc1)c1nc2ccccc2[nH]1	-1.8	x
O=C(OCc1nnc(-c2ccc(Cl)cc2)o1)c1ccc(S(=O)(=O)N2CCc3ccccc3C2)cc1	0.8	x
Cc1noc(C)c1COC(=O)c1cc(S(=O)(=O)NC(C)C)ccc1Br	3.9	x
COc1cc(S(=O)(=O)N2CCN(C)CC2)c(C)cc1C	2.4	0.321
O=C(NC1CCCCCC1)C1CCCO1 (configuration not stated)	-2.6	0.093
CC(C)(C)C(=O)CSc1nnc(-c2cc(OCC(F)(F)F)ccc2OCC(F)(F)F)o1	2.9	x
NC(=O)C1CCN(C(=S)Nc2ccccc2)CC1	0.6	-0.828

Three of these compounds in a different format.
O=C(O)CC1(CC(=O)Nc2cccc(CO)c2)CCCC1
  Ab BasE inh: -1.2
  LANA-nucl inh: x

CCOC(=O)c1c(NC(=O)c2ccccc2)sc2c1CC(C(C)C)OC2 (configuration not stated)
  Ab BasE inh: 1.7
  LANA-nucl inh: x

O=C(OCc1nnc(-c2ccc(Cl)cc2)o1)c1ccc(S(=O)(=O)N2CCc3ccccc3C2)cc1
  Ab BasE inh: 0.8
  LANA-nucl inh: x

3 successive records already listed, quoted:
SMILES	Ab BasE inh	LANA-nucl inh
CSc1ccc(/C=C2\SC(=O)N(C)C2=O)cc1	-0.6	-0.099
COC(=O)C1Cc2ccccc2CN1S(=O)(=O)c1ccc(C)cc1 (configuration not stated)	-3.8	x
CCOC(=O)C1=C(CN(C)Cc2ccccc2)NC(=O)NC1c1ccccc1 (configuration not stated)	0.8	0.742

The list goes on.
SMILES	Ab BasE inh	LANA-nucl inh
CC1=C(C(=O)OCc2ccccc2)C(c2cccc(O)c2)C2=C(CC(c3ccccc3)CC2=O)N1 (configuration not stated)	-2.4	x
CC1CCCCN1S(=O)(=O)c1ccc(N2CCCCS2(=O)=O)cc1 (configuration not stated)	0.3	2.19
O=C(Cn1cnc2sccc2c1=O)N1CCCC1c1ccc2c(c1)OCCCO2 (configuration not stated)	-0.3	x
CCN1CCCC1CNCC(O)COc1ccc(C)cc1 (configuration not stated)	1.8	x
CCCCN=C(C)C1C(=O)c2ccccc2C1=O	14.4	-0.73
COc1ccc(-n2c(NN)nc3c(c2=O)C2(CCCC2)Cc2ccccc2-3)cc1	-1.3	0.0995
CCCCN(C)C(=O)c1cn(-c2cccc(OC)c2)c(=O)c2ccccc12	-1.2	-0.292
CC(C)(C)C(=O)COC(=O)c1cccnc1SCC(=O)Nc1ccc2c(c1)OCO2	0.0	x
Cc1cccc(C)c1NC(=O)CN(C)C(C)C(=O)Nc1ccc(S(N)(=O)=O)cc1 (configuration not stated)	-0.1	x
N#C/C(=C\NN1CCCCC1)S(=O)(=O)c1ccc(Cl)cc1	x	0.343
CS(=O)(=O)N(CC(=O)Nc1cccc(Cl)c1)c1ccccc1Cl	0.4	x
C=C1SC(Nc2ccc(F)cc2F)=NC1(CC)CC	0.2	x
COc1ccc2cc(C(=O)NC(C)=O)c(=Nc3ccccc3)oc2c1	2.2	x
CN(C)S(=O)(=O)c1ccc2c(c1)nc(CCC(=O)N1CCc3ccccc3C1)n2C	1.6	x
Cc1cc(Cl)ccc1OCC(=O)Nc1ccc(Br)cn1	3.2	0.258
Cc1cc(=O)oc2c(CN3CCCC3)c(O)ccc12	0.5	0.292
Clc1nc2cc3c(cc2s1)OCO3	0.4	0.351
Cc1cccc(CN2C(=O)/C(=C\c3ccc(C(=O)NCCCN4CCN(C)CC4)cc3)Oc3ccccc32)c1	-41.4	2.92
CN(C(=O)COC(=O)c1c[nH]c(=O)[nH]c1=O)C1CCCCC1	2.3	x
COC(C(=O)N1CCCC1c1nnc(SCc2ccccc2)n1C)c1ccccc1 (configuration not stated)	0.7	-0.674
COc1cc(CNc2ccccc2SC)ccc1O	7.1	-0.668
COc1ccc(CCNC(=S)NC2CC2)cc1OC	-0.7	x
Cc1noc(C)c1CSCC(=O)NC1=NCCS1	-0.8	x
COC(=O)NC(Nc1sc2c(c1C(N)=O)CCC2)(C(F)(F)F)C(F)(F)F	0.0	0.24
O=c1c2ccccc2c(=O)n2n1CC=CC2	0.2	-0.488

Next part
SMILES	Ab BasE inh	LANA-nucl inh
COc1ccccc1N=C1SC(C)CN1C(=O)C1CCC1 (configuration not stated)	1.2	x
CCOc1ccc(CN2CCNC(=O)C2CC(=O)OC)cc1 (configuration not stated)	0.8	0.962
CC(c1ccccc1)n1cc(C(=O)NCC2COc3ccccc3O2)nn1 (configuration not stated)	-1.6	-0.3
COc1ccccc1N1CCN(C2CCN(Cc3cc(OC)c(OC)c(OC)c3)CC2)CC1	0.3	x
CCOC(=O)N1CCN(Cn2c(=S)sc3ccccc32)CC1	5.8	x
O=C(COC(=O)c1cc(-c2ccco2)nc2ccccc12)Nc1ccc(N2CCOCC2)cc1	0.9	x
CC(NC(=O)CSc1n[nH]c(=O)[nH]c1=O)C1CC2CCC1C2 (configuration not stated)	1.1	x
CCCOc1ccc(C=Nc2ccc(N3CCN(CC)CC3)cc2)c(O)c1	3.8	x
C=CCNC(=O)c1cnn2c(C(F)F)cc(-c3ccccc3)nc12	2.9	-1.28
COc1ccc(NC(=S)NNc2ccc(C(=O)O)cc2)cc1	-1.2	x
O=C(CSc1nc2c(oc3ccccc32)c(=O)n1CC1CCCO1)Nc1ccccc1 (configuration not stated)	0.7	-2.16
CCOC(=O)c1ccoc1COC(=O)c1ccc(C)c(C)c1	-0.6	x
O=C1CCC(C(=O)NCCCn2ccc3ccccc32)=NN1	0.0	x
COc1ccc(C)cc1NC(=O)CCC(=O)c1ccc2c(c1)OCCCO2	-10.4	x
CCOC(=O)c1cccc(NC(=O)N2CCOCC2)c1	-0.3	1.07
CONC1=CC(=O)c2ccccc21	1.7	x
Cc1nc2ccc(NC(=O)/C=C/c3ccc(Br)o3)cc2s1	5.8	x
CSc1nnc(Cn2c(=O)sc3ccccc32)n1CCc1ccccc1	1.3	0.612
COC(=O)COc1cccc2c(=O)n(CC(N)=O)ccc12	1.6	0.192
O=C(O)C1C2CCC(CC2)C1C(=O)O (configuration not stated)	0.9	-0.78
CCN(CC)C(=S)SC1CS(=O)(=O)CC1O (configuration not stated)	0.9	-0.335
O=C(CSCc1ccco1)CN1CCc2ccccc21	-0.7	-1.11
CNCC[C@H](Oc1cccc2ccccc12)c1cccs1	x	1.04&0.226&0.083
Cc1oc(/C=N/NS(=O)(=O)c2ccccc2)cc1Br	2.6	-1.27
Cc1ccc(C(=O)n2nc(-c3cccnc3)nc2NCc2ccco2)cc1	0.9	-0.237

Further structures.
SMILES	Ab BasE inh	LANA-nucl inh
O=C(O)CCCC1=NS(=O)(=O)c2ccccc2N1	-0.6	-0.004
CC1CC(=O)Nc2ccccc2N1S(=O)(=O)c1cn(C)cn1 (configuration not stated)	-0.7	0.625
N#CCCN1CCn2c3ccc(C4CCCCC4)cc3c3cccc1c32	-0.3	x
Cn1nc(C(=O)Nc2ccc(Cl)cc2)ccc1=O	1.1	x
CSc1nnc(CCNC(=O)NCc2ccccc2)n1C	-2.0	0.581
CCCn1c(=O)c2sccc2n2c(CCCC(=O)NCc3cccnc3)nnc12	-0.1	1.17
CC(C)=C1SC(N2CCN(c3ccccc3)CC2)=NC1=O	2.6	x
O=C(Nc1cccc(C(=O)NCc2ccc3c(c2)OCO3)c1)C1=CSCCO1	2.3	-1.45
CC1CN(C)C(C)C(/C=C(/C#N)C(N)=S)C1=O (configuration not stated)	2.5	0.786
Cc1cccc(OC(C)C(=O)OCC(=O)c2cc3ccccc3o2)c1 (configuration not stated)	-3.8	x
CC(C)c1cc(NC(=O)CSc2nc3ccc(Cl)cc3[nH]2)on1	-2.6	x
O=C1NC(Cc2c[nH]c3ccccc23)C(=O)N1CCN1C(=O)c2ccccc2C1=O (configuration not stated)	2.5	x
CC(C)CN1CCOC(CN)C1 (configuration not stated)	1.6	x
O=C(COc1cc2oc(=O)c3c(c2cc1Cl)CCC3)NCc1ccco1	0.6	x
CC(C)N1CC=C2C(C1)C(c1ccccc1Cl)C(C#N)=C(N)C2(C#N)C#N (configuration not stated)	25.7*	-2.35*
CCN(C(=O)c1ccnc(C(C)(C)C)c1)c1ccccc1	2.5	-0.308
Nc1ccc2c(c1)ncn2CCc1ccccc1	-2.8	1.1
CCOC(=O)C1=C(C)NC(=S)NC1c1cccc(O)c1 (configuration not stated)	1.4	-0.655
CC(C)NC(=O)c1ccc(Cl)cc1Cl	0.0	-1.18
CCCn1c(=O)n(Cc2ccc(Br)cc2)c2ccccc21	-2.3	x
Cc1cc2occ(CC(=O)OCc3ccc(C#N)cc3)c2cc1C	-0.3	x
Oc1ccccc1C(=S)N1CCN(C(=S)c2ccccc2O)CC1	0.6	1.02
CCC(=O)Nc1nonc1-c1ccc(OC)cc1	-3.3	1.73
Cc1nn(-c2ccc(Cl)cc2)c2sc(C(=O)O)cc12	2.9	x

From PubChem BioAssay

Some of the compounds tested. The share of hits here may be higher or lower than overall.
